# Sa growth inh: blocks Staphylococcus aureus growth. S. aureus RN4220 growth, OD600, 20 h, 42 °C; hits give low values. relative growth, % (no concentration beside the values). 170,000 compounds, 0.53% hits;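 active means growth at 42 °C up to 50% and 20 or more points under that at 30 °C, or under 10% at both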;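 further: 300 nL library stock went into each well; scaled to the means of positive and negative controls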
# HCMV UL50-53 inh: inhibitors of HCMV UL50-UL53 nuclear egress complex interaction; inhibition, % (concentration not given with the values); HTRF UL50-UL53 interaction, normalized percent inhibition; AID 1918969; 190,000 compounds, 0.15% hits;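 active means both replicates at 50% or more, plus weaker picks with an unusually low signal ratio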;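 further: stock transfer was 100 nL into about 20 µL; 0% = negative control wells and 100% = wells with untagged competitor protein; inactives centre near -12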
# GIV Gai3 FP: blocks GIV peptide binding to rat Galpha-i3 | P08753 | AID 1224905 | Galpha-i3/FITC-GIV peptide fluorescence polarization, 90 min; hits give low values; scaled: aluminum fluoride 0%, vehicle 100% | percent of control (FP), % (test concentration not listed) | 210,000 compounds, 0.42% hits;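 active means replicate mean at 85% of control or lower, very high polarization wells dropped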;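 further: wells of about 15 µL received 100 nL stock; the first replicate is given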
# Target sequence (P08753 whole entry, looked up): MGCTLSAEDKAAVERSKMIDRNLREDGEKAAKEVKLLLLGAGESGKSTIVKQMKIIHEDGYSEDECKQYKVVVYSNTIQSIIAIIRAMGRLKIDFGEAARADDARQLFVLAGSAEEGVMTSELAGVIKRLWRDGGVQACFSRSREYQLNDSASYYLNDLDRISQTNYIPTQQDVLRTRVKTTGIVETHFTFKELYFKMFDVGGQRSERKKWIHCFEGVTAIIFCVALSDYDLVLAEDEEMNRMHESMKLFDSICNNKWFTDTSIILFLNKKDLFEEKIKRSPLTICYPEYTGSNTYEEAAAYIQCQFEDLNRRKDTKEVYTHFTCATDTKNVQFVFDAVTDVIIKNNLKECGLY
# Sa growth inh second temp: second read-out of Sa growth inh, no call of its own (marks repeat the call); relative growth, %; measured here: growth at 30 °C;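 optical density after 20 h as mean of two plates; 100% = untreated growth and lower means inhibition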
# * marks the source's active call; other numbers are inactive results; x = no result given; & = joins results of further samples.
1. COc1ccc(Br)c(C(=O)Nc2c(F)cccc2F)c1
2. COC(CNC(=O)c1ccc2c(Cl)c3c(nc2c1)CCCC3)OC
3. CCN1CCN(C(=O)c2cc(C)nn2-c2ccccc2)CC1
4. O=C(CN1CC(c2ccccc2)CC1=O)OCc1ccccc1F (stereo unspecified)
5. Cc1ccc(S(=O)(=O)N2CC3C=CC2C3)cc1 (stereo unspecified)
6. CCCN(CCC)C(=O)c1c[nH]c2ccc(S(=O)(=O)Nc3cc(C)cc(C)c3)cc2c1=O
7. CC(Sc1nc2ccccc2[nH]1)C(=O)O (stereo unspecified)
8. COC(=O)CN1C(=O)S/C(=C/c2cc(C)n(C)c2C)C1=O

Compound,1,2,3,4,5,6,7,8
Sa growth inh,112,122,103,89,133,100,x,107
Sa growth inh second temp,89,86,91,86,90,76,x,80
HCMV UL50-53 inh,-8,x,4,2,x,-7,-12,-6
GIV Gai3 FP,96,99,100,109,108,102,102,100

9. CCOc1cc(C2C(C#N)=C(N)Oc3n[nH]c(-c4cccc([N+](=O)[O-])c4)c32)ccc1OC(=O)N1CCOCC1 (stereo unspecified)
10. COc1ccc(NS(=O)(=O)c2ccc3c(c2)C(C(C)C)C(=O)N3)cc1 (stereo unspecified)
11. CC(=O)NCc1ccc(C(=O)CSc2nnc(C3CC3)n2C2CC2)cc1
12. CC(C)(C)c1ccc(Cn2c(=N)n(CC(=O)O)c3ccccc32)cc1
13. O=C(Cn1c(=O)[nH]c2c(-c3ccccc3)c[nH]c2c1=O)NCc1ccccn1
14. O=C(Nc1cccc(F)c1)NC1(C(=O)NCc2ccco2)CCCCC1
15. Cc1csc(N/N=C\CCc2ccccc2)n1
16. O=C(NCCc1c[nH]c2ccc(Cl)cc12)C1CCCN(c2nc3ncccc3n3cccc23)C1 (stereo unspecified)

Compound,9,10,11,12,13,14,15,16
Sa growth inh,x,94,83,87,x,90,94,x
Sa growth inh second temp,x,92,88,74,x,84,64,x
HCMV UL50-53 inh,-31,x,-22,x,-13,-9,-14,-31
GIV Gai3 FP,99,103,x,101,104,103,104,110

17. Cc1cccc(-c2ncc(S(=O)(=O)C(C)(C)C)c(N)n2)c1
18. CCCOc1ccc(CNC(=O)C2CCN(c3nc4ccccc4nc3C(F)(F)F)CC2)cc1
19. CCC1C(=O)NCCN1C(=O)c1ccc(-c2ccccc2)cc1 (stereo unspecified)
20. Cc1cc(=O)n2[nH]c(C(=O)O)nc2n1
21. Cc1c(Cl)cccc1NC(=O)C(C)n1nnc2sc3c(c2c1=O)CCCC3 (stereo unspecified)
22. Cc1nn(C)c2nc(OCC(=O)NCCC(C)C)cc(C(F)(F)F)c12
23. O=C(Cn1c2c(c(-c3ccccc3Cl)cc1=O)CCC2)NCc1cccs1
24. CCN1C(=O)c2ccc(C(=O)Nc3ccc(O)cc3C)cc2C1=O

Compound,17,18,19,20,21,22,23,24
Sa growth inh,108,93,108,x,104,x,89,96
Sa growth inh second temp,82,92,99,x,97,x,50,103
HCMV UL50-53 inh,-11,x,-26,-1,-8,-27,x,-55
GIV Gai3 FP,101,98,103,104,101,102,103,104

# 5 entries from above, as tab-separated lines.
no.	molecule	Sa growth inh	Sa growth inh second temp	HCMV UL50-53 inh	GIV Gai3 FP
19	CCC1C(=O)NCCN1C(=O)c1ccc(-c2ccccc2)cc1 (stereo unspecified)	108	99	-26	103
20	Cc1cc(=O)n2[nH]c(C(=O)O)nc2n1	x	x	-1	104
21	Cc1c(Cl)cccc1NC(=O)C(C)n1nnc2sc3c(c2c1=O)CCCC3 (stereo unspecified)	104	97	-8	101
22	Cc1nn(C)c2nc(OCC(=O)NCCC(C)C)cc(C(F)(F)F)c12	x	x	-27	102
23	O=C(Cn1c2c(c(-c3ccccc3Cl)cc1=O)CCC2)NCc1cccs1	89	50	x	103

# Next records:
25. Cc1c(NC(=O)O/N=C(/N)c2ccccc2)sc2nc(-c3ccc(Cl)cc3)nn12
26. CCn1c(SCC(=O)Nc2ccccc2)nc2c(c1=O)SC(C)C2 (stereo unspecified)
27. Cc1ccc2[nH]c3c(c2c1)CCN(C)C3
28. O=C1C(=O)c2ccccc2C(O)=C1C1CCC(c2ccc(Cl)cc2)CC1 (stereo unspecified)
29. COc1ccc(C2CC(=O)C3=C(C2)NC(=O)CC3c2ccc3c(c2)OCO3)cc1 (stereo unspecified)
30. CCOC(=O)c1cc2n(n1)CC(C)(C(=O)NC1CCCCC1)N(c1cc(C)ccc1C)C2=O (stereo unspecified)
31. O=C(O)C12CCC(C(=O)O)(CC1)CC2
32. CCOC(=O)c1c(C)oc2c1c(C=NCCO)c(O)c1ccccc12

Compound,25,26,27,28,29,30,31,32
Sa growth inh,37,90,x,92&90,104,x,112,90
Sa growth inh second temp,39,88,x,81&79,85,x,91,96
HCMV UL50-53 inh,-18,-8,-17,-34&-42&-17&-22,-17,-6,-21,-10
GIV Gai3 FP,101,108,103,108,101,102,x,x

# Only Sa growth inh and GIV Gai3 FP, for some of the entries so far:
No.	smiles	Sa growth inh	GIV Gai3 FP
14	O=C(Nc1cccc(F)c1)NC1(C(=O)NCc2ccco2)CCCCC1	90	103
15	Cc1csc(N/N=C\CCc2ccccc2)n1	94	104
16	O=C(NCCc1c[nH]c2ccc(Cl)cc12)C1CCCN(c2nc3ncccc3n3cccc23)C1 (stereo unspecified)	x	110

# The listing continues.
33. CCOC(=O)c1noc2nc(C)n(Cc3cccc([N+](=O)[O-])c3)c(=O)c12
34. Cc1ccc(N2C(=O)/C(=C/c3cc(Br)c(N4CCOCC4)o3)C(=O)NC2=S)c(C)c1
35. Cc1cc2nc3sc(C(=O)N4CCN(c5ccccn5)CC4)cc(=O)n3c2cc1C
36. COc1cc(C2c3c(-c4c(C)cc(C)cc4O)n[nH]c3C(=O)N2CCCOC(C)C)cc(OC)c1OC (stereo unspecified)
37. Fc1ccccc1Cn1c(C2CC2)nc2ccccc21
38. O=C1CCc2cc(S(=O)(=O)N3CCN(c4cccc(Cl)c4)CC3)cc3c2N1CCC3
39. O=c1c2ccccc2nc(SCc2ccccc2)n1Cc1ccco1
40. c1ccc(CCCNc2nn3nnnc3c3ccccc23)cc1

Compound,33,34,35,36,37,38,39,40
Sa growth inh,117,111,x,97,90,103,109,x
Sa growth inh second temp,105,73,x,96,88,99,99,x
HCMV UL50-53 inh,x,-37,-53,-5,2,13,-15,-35
GIV Gai3 FP,109,209,100,94,97,111,100,100

41. COC(=O)c1ccc2c(c1)C(=O)c1ccccc1CO2
42. N#CCC(O)(c1nc2ccccc2s1)C(F)(F)F (stereo unspecified)
43. CC1CC(C)CN(C(=O)COC(=O)c2ccc(O)cc2)C1 (stereo unspecified)
44. CSC(=S)Nc1ccc(Br)cc1
45. O=C1CN=C(Nc2ccccc2)N1c1ccccc1
46. Cc1ccc(NCn2c(=O)sc3ccccc32)cc1
47. CC(C)Oc1ccccc1C(N)=O
48. CSc1nc(NCCO)c(C#N)c(-c2ccc(C(C)(C)C)cc2)n1

Compound,41,42,43,44,45,46,47,48
Sa growth inh,x,104,93,76,84,102,103,87
Sa growth inh second temp,x,86,95,59,79,75,101,44
HCMV UL50-53 inh,-16,-7,-2,-6,-1,-29,0,4
GIV Gai3 FP,104,x,x,102,101,101,102,100

# One compound at a time, from the list above.
# `O=C1CN=C(Nc2ccccc2)N1c1ccccc1` is entered as Sa growth inh = 84; Sa growth inh second temp = 79; HCMV UL50-53 inh = -1; GIV Gai3 FP = 101
# `Cc1ccc(NCn2c(=O)sc3ccccc32)cc1` is entered as Sa growth inh = 102; Sa growth inh second temp = 75; HCMV UL50-53 inh = -29; GIV Gai3 FP = 101

# (further entries)
49. CNC(=O)c1c[nH]c2ccc(S(=O)(=O)Nc3ccccc3F)cc2c1=O
50. Oc1ccc(-c2nc(-c3ccc(F)cc3)c(-c3ccncc3)[nH]2)cc1
51. O=C(C1CCCN1c1nnc(N2CCCC2=O)s1)N1CCN(c2ccccc2)CC1 (stereo unspecified)
52. N#Cc1cnn(C(=O)c2cccc(S(=O)(=O)Nc3ccc(Cl)cc3)c2)c1N
53. CC1(C)OC(C)(C)/C(=C/c2ccc3cccnc3c2)C1=O
54. Clc1ccc(CNc2nc3ccccc3c3nc(-c4cccnc4)nn23)cc1
55. Cc1cc(C(=O)NCCc2ccc(Cl)cc2)c2c(C)nn(-c3ccccc3)c2n1
56. CCOc1cc(C2Sc3ccccc3NC3=C2C(=O)c2ccccc23)ccc1O (stereo unspecified)

Compound,49,50,51,52,53,54,55,56
Sa growth inh,87,x,98,109,93,96,103,110
Sa growth inh second temp,95,x,94,89,86,86,97,100
HCMV UL50-53 inh,-4,0&2&-4&-10&-29&-35&-35&-16,x,-6,-4,-24,x,-66
GIV Gai3 FP,105,95,100,x,x,106,107,109

57. O=C1CCCc2cc(S(=O)(=O)N3CCCC3C(=O)N3CCN(c4ccccc4)CC3)ccc2N1 (stereo unspecified)
58. Cc1cc(C(=O)CONC(=O)C23CC4CC(CC(C4)C2)C3)c(C)n1C
59. CCOc1ccc(Nc2oc(Cc3ccccc3)nc2C#N)cc1
60. CCOC(=O)Cn1nc2sc3ccccc3n2c(=O)c1=O
61. O=C(NC1CCN(CC(=O)N2CCOCC2)CC1)C1CCCCC1
62. O=C1CSC(c2ccccc2)N1Cc1ccccc1 (stereo unspecified)
63. COc1ccc(NC(=O)CN2CCN(CC(=O)Nc3ccccc3F)CC2)c(OC)c1
64. CCOC(=O)CNC(=O)N1CCCN(c2ccc(=O)n(-c3ccccc3)n2)CC1

Compound,57,58,59,60,61,62,63,64
Sa growth inh,x,105,104,91,92,102,108,x
Sa growth inh second temp,x,98,97,85,91,91,88,x
HCMV UL50-53 inh,-17,-1,-8,-26,13,x,x,-32
GIV Gai3 FP,112,x,106,104,104,100,109,95

# In the list so far, these contain a tert-butyl group.
12. CC(C)(C)c1ccc(Cn2c(=N)n(CC(=O)O)c3ccccc32)cc1
17. Cc1cccc(-c2ncc(S(=O)(=O)C(C)(C)C)c(N)n2)c1
48. CSc1nc(NCCO)c(C#N)c(-c2ccc(C(C)(C)C)cc2)n1

Compound,12,17,48
Sa growth inh,87,108,87
Sa growth inh second temp,74,82,44
HCMV UL50-53 inh,x,-11,4
GIV Gai3 FP,101,101,100

# (more compounds)
65. CCc1ccccc1N(CC)C(=O)COc1cc(=O)n(CC)c2ccccc12
66. COc1cc(C2c3c(-c4cc(C)ccc4O)n[nH]c3C(=O)N2Cc2ccco2)cc(OC)c1OC (stereo unspecified)
67. Cc1cc(C)c2c(-n3cccc3)c(C(=O)NCCCN3CCCCC3C)sc2n1 (stereo unspecified)
68. O=C(NCCc1ccc(S(=O)(=O)N2CCCC2)cc1)c1cccs1
69. CC(Sc1nc(N)cc(=O)[nH]1)C(=O)Nc1cccc(Cl)c1 (stereo unspecified)
70. Oc1c(CN2CCN(c3ccccc3)CC2)cc(Cl)c2cccnc12
71. Cn1c(=O)c2c(C(=O)NCCCN3CCCC3)cc(=O)n(C)c2n(C)c1=O
72. N#CC(C#N)C(c1ccccc1)c1c(O)[nH]c(=S)[nH]c1=O (stereo unspecified)

Compound,65,66,67,68,69,70,71,72
Sa growth inh,x,107,109,100,103,100,x,94
Sa growth inh second temp,x,87,93,87,99,84,x,91
HCMV UL50-53 inh,-19,-26,-3,-1,-2,-23,-6,-8
GIV Gai3 FP,104,106,103,x,104,x,108,x

73. COc1ccc(Nc2c(-c3cccc(O)c3)nc3cnccn23)cc1
74. C=CCN(CC=C)C(=O)C[n+]1ccc(/C=N/O)cc1
75. COc1ccc(Cl)cc1-c1noc(-c2cccnc2)n1
76. Cc1ccc(NC(=O)CC(C)S(=O)(=O)c2ccc3c(c2)NC(=O)CO3)cc1Cl (stereo unspecified)
77. Cc1ccccc1-c1nnc(CN2CCc3ccccc32)o1
78. CC(=O)Nc1c(O)c2ccccc2[nH]c1=O
79. CCCc1nnc2n1NC(c1ccc(CC)cc1)C(C(=O)Nc1ccc(C)c(C)c1)S2 (stereo unspecified)
80. COC(=O)c1sc(SC)c(-c2ccon2)c1C
81. Nc1ccc(Cc2ccncc2)cc1
82. CCOC(=O)NN1C(=O)c2ccccc2NC1c1ccc(OC)cc1 (stereo unspecified)
83. CC(CN1CCCCC1)OC(=O)c1ccco1 (stereo unspecified)

Compound,73,74,75,76,77,78,79,80,81,82,83
Sa growth inh,90,97,x,89,90,106,x,103,103,116,95
Sa growth inh second temp,69,90,x,88,92,107,x,91,92,86,88
HCMV UL50-53 inh,-22,-78,-3,x,-36,-14,-18,-3,-33,x,-11
GIV Gai3 FP,109,110,102,106,100,96,101,102,x,100,x

# Compound activity deposited in PubChem by ICCB-Longwood Screening Facility, Harvard Medical School.
